# Bioassay records as filed in PubChem.
# 2A Renilla: lowers the Renilla signal of an FMDV 2A StopGo reporter; HEK cells with a luciferase reporter of 2A StopGo recoding; Potency, µM (highest dose often 57.5 µM), for inactives: at the top dose signal change, negative = less light; 0.32% of 120,000 active; active means well fitted falling curve with a large enough effect; inconclusive means small, poorly fitted or top-dose-only effect; inactive means no such curve, though single readings can be large or run the other way; note: nearly all actives have a fitted effect of over 55% in size; overnight with compound
# 2A firefly: FMDV 2A StopGo reporter, firefly signal | HEK cells with a luciferase reporter of 2A StopGo recoding | Potency, µM (top dose mostly 57.5 µM), for inactives: top-dose signal change, negative = less light | 0.23% of 120,000 active | AID 1745856; active = well fitted falling curve with a large enough effect; inconclusive = small, poorly fitted or top-dose-only effect; inactive = no such curve, though single readings can be large or run the other way; note: nearly all actives have a fitted effect of over 60% in size; overnight with compound
# An asterisk follows results filed as active; u = inconclusive; [ ] = dose if it differs, or a comment. % is set by controls: 0 for no effect and ±100 for the full control effect; potency is the fitted concentration of half-maximal effect. An excerpt; rates above refer to the full screens.
# Sample of the layout (four entries):
mol,2A Renilla,2A firefly
Cc1ccccc1C(=O)N1CC(=O)Nc2ccc(Cl)cc2C1c1ccccc1 (configuration not stated),110.5%[activator],37.9%[activator]
CCN(CC)c1ccc(C2C(C(N)=O)=C(C)Nc3nc(SCc4ccccc4)nn32)cc1 (configuration not stated),14.1%,u
COc1ccc(-c2nc3ccccc3o2)cc1NC(=O)c1ccc2c(c1)OCO2,-6.1%,3.4%
CCOc1ccc(CNS(=O)(=O)c2ccc3c(c2)CC(C)N3C(C)=O)cc1OC (configuration not stated),u,u

# Results, repeating the preview:
mol,2A Renilla,2A firefly
Cc1ccccc1C(=O)N1CC(=O)Nc2ccc(Cl)cc2C1c1ccccc1 (configuration not stated),110.5%[activator],37.9%[activator]
CCN(CC)c1ccc(C2C(C(N)=O)=C(C)Nc3nc(SCc4ccccc4)nn32)cc1 (configuration not stated),14.1%,u
COc1ccc(-c2nc3ccccc3o2)cc1NC(=O)c1ccc2c(c1)OCO2,-6.1%,3.4%
CCOc1ccc(CNS(=O)(=O)c2ccc3c(c2)CC(C)N3C(C)=O)cc1OC (configuration not stated),u,u
CCCCCC(=O)N/N=C(/C)c1cccc(NC(=O)c2ccc(Cl)cc2)c1,27.5%,69.9%[activator]
CCn1c(SCC(=O)Nc2oc(C)c3c(C)n[nH]c(=O)c23)nnc1C1CC1,-3.7%,-1.2%
CN(C(=O)CSc1nc2ccc(NC(=O)c3ccco3)cc2s1)c1ccccc1,48.1%[activator],u
O=C(CS(=O)(=O)c1ccc(N2CCCC2=O)cc1)N1CCOCC1,-1.0%,72.3%[activator]
CCN1CCN(Cc2nc3cc(NC(=O)c4cc(OC)c(OC)c(OC)c4)ccc3n2CC)CC1,-3.2%,7.4%
CC(C)OCCCNC(=O)c1cc(Nc2cccc(C(F)(F)F)c2)nc2ccccc12,-1.3%,9.5%
CCC(C(=O)Nc1cc(OC)cc(OC)c1)n1nc(-c2ccc(C)c(C)c2)ccc1=O (configuration not stated),-10.8%,-18.2%
c1ccc2c(-c3nn4c(C5CCCCC5)nnc4s3)c[nH]c2c1,-1.9%,7.9%
O/N=C/c1cccs1,3.0%,3.2%
CC(C)NCc1ccc(-c2ccc(C(C)O)cc2)o1 (configuration not stated),-3.5%,7.4%
COC(=O)C1=CNC=C(C(=O)OC)C1c1ccc(C(F)(F)F)cc1,83.9%[activator],24.1%
CN(CCc1noc(-c2ccccc2)n1)S(=O)(=O)c1cccc2nsnc12,29.4%,11.6%
C/C(c1cccs1)=[N+](\[O-])C(C)/C(=N/O)c1cccs1 (configuration not stated),35.4%[activator],0.0%
COc1ccc(N2CC(NC(=O)c3ccc(S(=O)(=O)N4CCCCC4)cc3)CC2=O)cc1 (configuration not stated),-6.4%,-2.7%
O=C(Cn1ccc2ccccc21)NCc1ccc(Cl)cc1,0.5%,0.0%
NC(=O)C1CCN(C(=O)c2ccc3c(c2)CCN3S(=O)(=O)c2ccc(Cl)cc2)CC1,39.1%[activator],0.7%
Cc1ccc(/C=C/C(=O)NCC(C)(C)CNC(=O)/C=C/c2ccc(C)o2)o1,18.3%,24.6%
N#CC(C(=O)Nc1ccccc1Cl)C(=O)c1ccccc1Cl (configuration not stated),40.3%[activator],0.0%
CC(=O)c1ccc(N2CCN(c3ncnc4c3c(-c3ccccc3)cn4-c3ccc(C)c(Cl)c3)CC2)cc1,-1.1%,-19.0%
O=C(Cn1c(=O)n(-c2ccc(Cl)cc2)c(=O)c2c3c(sc21)CCC3)c1ccc(F)cc1,-15.2%,-18.8%
Nc1ccc(/C=C/c2ccc(N)cc2S(=O)(=O)O)c(S(=O)(=O)O)c1,-9.5%[0.46 µM],-16.6%[0.46 µM]
CCN(C(=O)C1CCC(CNS(=O)(=O)c2cccc3nsnc23)CC1)c1cccc(C)c1 (configuration not stated),u,u
COc1ccc(Cl)cc1NC(=O)Cn1c(=O)n(Cc2cccs2)c(=O)c2cccnc21,3.1%,-4.3%
CCOC(=O)c1sc(NC(=O)C2c3ccccc3Oc3ccccc32)c(C(=O)OCC)c1C,0.0%,-0.5%
CCN(CC1CCOC1)C(=O)CCc1c(C)c2ccc(OC)cc2oc1=O (configuration not stated),1.3%,43.0%[activator]
CCNc1nc2c(c(=O)n(C)c(=O)n2C)n1CC(O)COc1ccccc1C (configuration not stated),u,u

# Additional structures:
mol,2A Renilla,2A firefly
O=C(Cc1cccc2ccccc12)Nc1ccc(N2CCOCC2)c(Cl)c1,16.2%,21.1%
CS(=O)(=O)c1cccc(C(=O)N(CCc2ccccc2)Cc2ccccc2)c1,46.3%[activator],0.0%
N=C(N)c1ccccc1,-6.8%,-4.4%
CC(CC(=O)NCc1ccc(F)cc1)S(=O)(=O)c1ccc2c(c1)CCN2C(=O)C1CC1 (configuration not stated),24.2%,6.0%
CCn1c(COc2ccccc2)nnc1SCC(=O)N1CCc2ccccc2C1,17.7%,-9.1%
CC(C)c1ccc(C(=O)O)c(O)c1,-5.7%,21.9%
O=C(Nc1ccccc1F)C12CC3CC(CC(C3)C1)C2,8.7%,17.7%
Cc1cc(C)cc(NC(=O)[C@H]2O[C@@H]3OC(C)(C)O[C@@H]3[C@H]3OC(C)(C)O[C@H]32)c1,33.9%[activator],-15.8%
COc1cccc(C(=O)OCc2nc3ccccc3o2)c1,5.1%,11.7%
CCN(CC)C(=O)Cn1c(=O)n(CCCCCC(=O)NCc2ccccc2Cl)c(=O)c2sccc21,u,0.0%
O=S(=O)(c1ccccc1)c1nnn2c1nc(N1CCN(c3ccccc3)CC1)c1cc(Cl)ccc12,-4.3%,11.3%
CNC(=S)NNC(=O)c1ccccc1,-3.2%,16.9%
Cc1ccc(C)c(CNC(=O)c2sc3ncnc(N(C)C4CCCCC4)c3c2C)c1,-14.3%,-14.9%
O=C(CSc1nc(-c2cccc(Cl)c2)cc(=O)[nH]1)Nc1oncc1-c1ccccc1,8.0%,6.2%
CCN(C(=O)C(Cc1ccccc1)NS(=O)(=O)c1cccc2nsnc12)c1ccccc1 (configuration not stated),158.8%[activator],-10.7%
COc1ccccc1Nc1nc2nccc(-c3ccccc3OC)c2c(=O)[nH]1,-0.4%,7.0%
Cc1sc2c(c1C)c(=O)n(CCc1ccccc1)c(=O)n2Cc1ccc(C(C)(C)C)cc1,-12.7%,-12.4%
CCOc1ccccc1CNC(=O)CCn1ccc2cc(S(=O)(=O)N3CCC(C)CC3)ccc21,42.7%[activator],-12.8%
CC(NC(=O)CCCC(=O)O)C12CC3CC(CC(C3)C1)C2 (configuration not stated),3.8%,-4.9%
CCN1C(=O)C(O)(CC(=O)c2cc(C)c(C)cc2C)c2ccccc21 (configuration not stated),-10.3%,-5.9%
Cc1ccc(-c2nc(NC(=O)CSc3ccc4ccccc4n3)ns2)cc1,0.0%,-23.1%
CC(=O)C(C(C)=O)=C1SCCCS1,u,1.1%
N#Cc1ccc(-c2cccs2)nc1SCc1ccc(Cl)cc1Cl,10.7%,-14.1%
Cc1nc(Nc2nc3ccccc3o2)nc(-c2ccc(Cl)cc2)c1C#N,-1.9%,6.8%
CNC(=O)CSc1cn(CC(=O)N2CCCCCC2)c2ccccc12,-3.3%,-13.3%
CCc1ccc(OC(=O)c2ccc(OC)c(I)c2)cc1,12.5%,0.0%
CCOc1ccc(CC(=O)Nc2c(C(=O)c3ccc(F)cc3)oc3ccc(Cl)cc23)cc1OCC,-1.0%,-4.5%
CCOC(=O)Cn1c(=O)n(CC2CCCO2)c2nc(-c3c(F)cccc3Cl)nc(C(N)=O)c21 (configuration not stated),-0.4%,-4.1%
COc1ccc(Cl)cc1N1CC(c2nc3ccccc3n2CC(=O)N(C(C)C)C(C)C)CC1=O (configuration not stated),-2.2%,-3.7%
Cc1cccc(-c2nnc3sc(NC(=O)c4ccccc4F)nn23)c1,-16.9%,-10.4%

# Reprinted at random: 5 records from the list.
mol,2A Renilla,2A firefly
CC(NC(=O)CCCC(=O)O)C12CC3CC(CC(C3)C1)C2 (configuration not stated),3.8%,-4.9%
COc1ccc(Cl)cc1NC(=O)Cn1c(=O)n(Cc2cccs2)c(=O)c2cccnc21,3.1%,-4.3%
N#Cc1ccc(-c2cccs2)nc1SCc1ccc(Cl)cc1Cl,10.7%,-14.1%
CC(=O)C(C(C)=O)=C1SCCCS1,u,1.1%
CN(C(=O)CSc1nc2ccc(NC(=O)c3ccco3)cc2s1)c1ccccc1,48.1%[activator],u

# Additional compounds follow:
mol,2A Renilla,2A firefly
COc1ccccc1N1CCN(S(=O)(=O)c2ccc(F)c(C(=O)Nc3ccc(C)c(F)c3)c2)CC1,-9.9%,-3.3%
Cc1ccccc1Cn1c2ccccc2c2cnn(CC(=O)NCc3cccc(Cl)c3)c(=O)c21,-14.4%,-6.1%
COc1ccc(-c2cc(C(F)(F)F)n3nc(C(=O)Nc4sc5c(c4C(=O)OC(C)C)CCC(C)C5)cc3n2)cc1 (configuration not stated),1.2%,-22.2%
CC(C)(C)OC(=O)N1CCC(c2c(C(=O)NC3CCCCC3)cnn2-c2ccc(F)cc2F)CC1,-5.1%,-9.9%
Cc1cc(NC(=O)Cc2cccc(C(F)(F)F)c2)ccc1N1CCN(C)CC1,-14.6%,-8.0%
CC1Cc2cc(S(=O)(=O)CCC(=O)Nc3ccc(F)cc3Cl)ccc2N1C(=O)C1CC1 (configuration not stated),2.6%,-17.4%
O=C(c1ccc(OC(F)F)cc1)n1ccccc1=NC1CCCCC1,0.0%,91.1%[activator]
COc1ccc(-c2nc3ccccc3o2)cc1NC(=O)CSc1ccc(Cl)cc1,7.7%,25.2%
O=C(Nc1cccc(OC2CCCC2)c1)c1ccncc1,u,u
C=CCn1c(SCC(=O)Nc2ccccc2)nc2c1c(=O)n(C)c(=O)n2C,-7.7%,-2.3%
CCC(C(=O)Nc1ccc(C(F)(F)F)cc1)n1cnc2ccccc2c1=O (configuration not stated),13.1%,0.7%
Cn1c(=O)[nH]c(=O)c2c1nc(N)n2CC(O)COc1ccc(Cl)cc1Cl (configuration not stated),4.2%,15.0%
COc1ccc2cc(C(=O)/C=C/c3cccs3)ccc2c1,0.0%,183.3%[activator]
Cn1cc(-c2cc3n(n2)CCCN3C(=O)CCC(=O)NC2CCCC2)c2ccccc21,5.5%,9.9%
COc1ccc(CNC(=O)Cn2c(=O)cc(C)c3c(C)nn(-c4cccc(Cl)c4C)c32)cc1,3.0%,-1.6%
N#Cc1nc(-c2cccc3ccccc23)oc1NCCCn1ccnc1,51.3%[activator],79.0%[activator]
COc1ccc(NC(=O)CSc2oc(-c3ccco3)nc2S(=O)(=O)c2ccc(C)cc2)c(OC)c1,0.0%,-1.9%
CCOC(=O)c1ccc(NC2=CC(c3ccc(Br)cc3)N(c3ccc(C(=O)OCC)cc3)C2=O)cc1 (configuration not stated),-7.9%,3.9%
CCCCCCCC(=O)NNC(=O)c1ccc2ccccc2n1,17.3%,0.0%
CCOc1cccc(C(=O)N2CCC(c3nc4ccccc4s3)CC2)c1,4.4%,-10.6%
O=C(NNC(=S)Nc1ccc(F)cc1)Nc1ccccc1,u,10.3%
COC(=O)c1cc(NC2(c3ccccc3)C(=O)c3ccccc3C2=O)cc(C(=O)OC)c1,15.8%,14.9%
COc1cccc(C(=O)NCC(c2ccc3c(c2)OCO3)N2CCOCC2)c1 (configuration not stated),-18.2%,-11.6%
CCOc1nc(NC(=O)NS(=O)(=O)Oc2cccc(Cl)c2)nc(-c2ccccc2)n1,2.5%,124.0%[activator]
Cn1nc(Oc2nc(N3CCOCC3)nc(N3CCOCC3)n2)ccc1=O,21.0%,6.1%
COC(=O)CSc1nc2ccsc2c(=O)n1C,-6.1%,-3.4%
CCNc1c(NS(=O)(=O)c2ccc(F)cc2)c(=O)oc2ccccc12,1.0%,64.2%[activator]
Cc1c(O)ccc2c(CSc3nnc(N4CCCC4)s3)cc(=O)oc12,6.8%,9.4%
Cc1oc(-c2ccccc2)nc1CC(=O)NCCC(=O)N1CCCC1,12.4%,0.0%
CCCN(CCC)C(=O)Cn1c(=O)n(-c2ccc(CC)cc2)c(=O)c2ccc(C(=O)NCCc3ccccc3)cc21,3.5%,-13.2%

# New compounds follow.
mol,2A Renilla,2A firefly
COc1cccc(CNC(=O)C2CCN(C(=O)c3cnn(-c4ccccc4)c3-n3cccc3)CC2)c1,u,u
CC(C)NC(=O)c1ccc(Cn2c(SCC(N)=O)nc3ccccc3c2=O)cc1,1.6%,7.8%
CC(=O)c1cccc(NC(=O)C2CCN(c3nnc(-n4cccc4)s3)CC2)c1,-9.3%,13.1%
Cc1cccc(C(=O)NC2CCCCCC2)n1,6.3%,0.0%
O=C(Nc1cccc(-c2nnc3n2CCCCC3)c1)c1n[nH]c(=O)c2ccccc12,-5.8%,0.0%
CCc1cc(C(=O)Nc2cc(Cl)ccc2Cl)no1,5.5%,92.7%[activator]
Nc1nc(NCc2ccc(Cl)cc2Cl)c2[nH]cnc2n1,-8.5%,6.2%
Cc1cccc(NC(=O)CSc2nc3c(c(=O)[nH]2)CCC3)c1C,-8.0%,-2.3%
CCc1ccc(NC(=O)c2cnc3sc(N4CCCC4)nn3c2=O)cc1,-23.5%,-3.6%
Cc1cc(NC(=O)CN2CCC(O)CC2)nc2c1c(=O)oc1ccccc12,-9.2%,-7.5%
CC(C)(C)C1(O)C(=O)Nc2ccccc21 (configuration not stated),2.0%,10.7%
CNc1c(NC(=O)c2ccc(Cl)cc2)c(=O)oc2ccccc12,2.9%,5.7%
